GIV-Gai inh – inhibitors of GIV peptide binding to Galpha-i3, primary screen, biochemical, fluorescence polarization, FITC-GIV GBA peptide, rat Galphai3; 90 min; stronger effect = lower value; scaled: aluminum fluoride 0%, vehicle 100%; AID 1224905, 2016; 210,000 tested, 0.42% active; percent of control (FP), % (test concentration not listed); Guanine nucleotide-binding protein G(i) subunit alpha-3 (Rattus norvegicus), P08753;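 active = replicate mean at 85% of control or lower, very high polarization wells dropped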;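 note: wells of about 15 µL received 100 nL stock; the first replicate is given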
Target sequence (P08753 whole entry, looked up): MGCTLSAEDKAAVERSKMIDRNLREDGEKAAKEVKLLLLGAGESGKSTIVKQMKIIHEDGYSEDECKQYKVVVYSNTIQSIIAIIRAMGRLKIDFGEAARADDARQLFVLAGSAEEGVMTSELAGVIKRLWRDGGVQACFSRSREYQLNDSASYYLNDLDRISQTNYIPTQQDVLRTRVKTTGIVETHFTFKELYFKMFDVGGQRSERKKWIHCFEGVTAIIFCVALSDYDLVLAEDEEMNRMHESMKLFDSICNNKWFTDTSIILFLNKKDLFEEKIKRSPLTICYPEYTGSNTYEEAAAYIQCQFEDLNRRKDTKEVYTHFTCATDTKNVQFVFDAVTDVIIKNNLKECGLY
* = called active by the depositor.

| Compound | GIV-Gai inh |
| --- | --- |
| O=C(NCc1csc(-c2cccs2)n1)[C@H]1CSCN1C(=O)C1CCCO1 (some centres not stated) | 102.1 |
| Fc1ccc2nc3c(nc2c1)c1cc(F)ccc1n3Cc1ccc(Cl)cc1 | 108.5 |
| CC(C)CCNC(=O)c1ccc(-c2cc(N3CCCC3)ncn2)cc1 | 137.5 |
| O=C(NCCn1cnc2cc(C(=O)N3CCCC3)ccc21)Nc1ccc(Cl)cc1 | 102.4 |
| COc1ccc([N+](=O)[O-])cc1N1C(=O)C2C3c4ccccc4C(c4ccccc43)C2C1=O (configuration not stated) | 102.9 |
| COc1cc(OC)cc(C(=O)Oc2ccc(Cl)cc2NC2=NS(=O)(=O)c3ccccc32)c1 | 103.9 |
| O=C1c2cc(S(=O)(=O)O)ccc2-c2ccc(S(=O)(=O)O)cc21 | 117.1 |
| CCOC(=O)c1ccc(NC(=O)Nc2cc(F)c3nc(N4CCCC4)ccc3c2)cc1 | 104.4 |
| Cc1cc(C2CCCN2S(=O)(=O)c2ccc(Cl)s2)no1 (configuration not stated) | 102.0 |
| CCC(C)NS(=O)(=O)c1cc2c(cc1C)N(Cc1noc(C3CC3)n1)C(=O)CO2 (configuration not stated) | 104.9 |
| CCOc1ccc(-n2cc(-c3ccccc3)c3c(NCCCN4CCOCC4)ncnc32)cc1 | 111.2 |
| COc1ccc(C(OCC2OC(n3ccc(=O)[nH]c3=O)C(O)C2O[Si](C)(C)C(C)(C)C)(c2ccccc2)c2ccc(OC)cc2)cc1 (configuration not stated) | 105.2 |
| CC(C)CNC(=O)CCn1c(=O)c2ccccc2n2c(=O)n(CC(N)=O)nc12 | 97.7 |
| CC(=O)c1c(C)oc2ccc(N(C(=O)c3ccccc3)S(=O)(=O)c3ccc(C(C)(C)C)cc3)cc12 | 111.6 |
| Cc1cccc(-c2cnc(N3CCC(C(=O)NC4CCCc5ccccc54)CC3)nc2)c1 (configuration not stated) | 102.7 |
| CCOc1ccc(NC(=O)c2cc3c(C)nn(-c4ccc(Cl)cc4)c3s2)cc1 | 106.4 |
| Cc1cc(C2CCCN2C(=O)c2c(F)cccc2F)no1 (configuration not stated) | 103.3 |
| Cc1nc2sccn2c(=O)c1NC(=O)c1c(F)cccc1Cl | 109.5 |
| CCCCCCCCCn1c(=O)c2c(nc3n2CCS3)n(C)c1=O | 113.7 |
| Cc1cccc(OCC(=O)Oc2ccccc2NC2=NS(=O)(=O)c3ccccc32)c1 | 109.8 |
| Cc1ccc(CN2C(=O)C3C(c4ccccc4Cl)OC4(C(=O)c5ccccc5C4=O)C3C2=O)cc1 (configuration not stated) | 100.3 |
| Cc1cccc(-n2c3nc(=O)[nH]c(=O)c-3cc3ccccc32)c1C | 107.5 |
| Cc1ccccc1S(=O)(=O)N1CCC2(CC1)NCCN=C2NC(C)(C)C | 99.4 |
| Cc1cccc(-c2nc3ccccc3c3nnc(SCC(=O)N4CCCC4)n23)c1 | 103.5 |
| Cc1csc(-c2cc(S(=O)(=O)NC3CCCCC3)cn2CC(=O)N2CCCC2)n1 | 108.9 |
| O=C(COC(=O)CSc1nc2ccccc2s1)Nc1cccc2ccccc12 | 105.0 |
| COC(=O)C1C(=O)NC(SCC(=O)Nc2ccc(C)c(C)c2)=C(C#N)C1c1ccccc1OC (configuration not stated) | 112.9 |
| O=C(Cc1ccccc1)Nn1c(SCc2cc(=O)n3ccccc3n2)nc2ccccc2c1=O | 114.4 |
| CCc1ccc(N2COc3ccc4c(C)cc(=O)oc4c3C2)cc1 | 114.8 |
| CC(C)c1ccc(-c2nn3c(=O)c(NC(=O)c4ccc(F)cc4)cnc3o2)cc1 | 99.7 |
| Cc1cc2c(cc1S(=O)(=O)N1CCOCC1)OCC(=O)N2Cc1noc(C2CC2)n1 | 105.1 |
| COC(=O)c1c(-c2ccc(Cl)cc2)noc1N1CCN(C2CCCCC2)CC1 | 109.0 |
| CCOc1c(Br)cc(C2C(C(=O)OC)=CN(Cc3ccc(Cl)cc3)C=C2C(=O)OC)cc1OC | 109.2 |
| Cc1nc(-c2ccc(C(C)C)c(S(=O)(=O)N3CCC(C)CC3)c2)cs1 | 99.6 |
| COc1cccc(NC(=O)c2sc3ncnc(N4CCN(c5ccccn5)CC4)c3c2C)c1 | 102.4 |
| O=C(Cc1c[nH]c2ccccc12)N1CCN(C(=O)c2nc(-c3ccc(N4CCCCC4)cc3)no2)CC1 | 104.7 |
| CC1(c2ccccc2)CC(C)(C)N(C(=O)C(F)(F)F)c2ccc(C(c3ccccc3)(c3ccccc3)c3ccccc3)cc21 (configuration not stated) | 106.6 |
| COC(=O)c1ccc(NC(=O)C2CC(=O)N(C)C(=Nc3ccccc3OC)S2)cc1 (configuration not stated) | 113.7 |
| O=C(Nc1cnc2ccccc2c1)c1cc2nc(-c3cccs3)cc(C(F)(F)F)n2n1 | 97.7 |
| OC1(c2ccc(Br)cc2)CN(c2ccccc2)C2=[N+]1CCS2 (configuration not stated) | 109.4 |

Overlap with the part before: 4 entries, then new ones.
| Compound | GIV-Gai inh |
| --- | --- |
| CC1(c2ccccc2)CC(C)(C)N(C(=O)C(F)(F)F)c2ccc(C(c3ccccc3)(c3ccccc3)c3ccccc3)cc21 (configuration not stated) | 106.6 |
| COC(=O)c1ccc(NC(=O)C2CC(=O)N(C)C(=Nc3ccccc3OC)S2)cc1 (configuration not stated) | 113.7 |
| O=C(Nc1cnc2ccccc2c1)c1cc2nc(-c3cccs3)cc(C(F)(F)F)n2n1 | 97.7 |
| OC1(c2ccc(Br)cc2)CN(c2ccccc2)C2=[N+]1CCS2 (configuration not stated) | 109.4 |
| COc1cccc(-c2cn3c4c(=O)n(C)c(=O)n(C)c4nc3n2-c2ccc(OC(F)(F)F)cc2)c1 | 101.1 |
| COc1ccc(N2CCN(c3nc(C)nc4sc(C)c(C)c34)CC2)cc1 | 108.6 |
| Cc1cc(Nc2ccccc2)nc(N2CCN(C(=O)Nc3cccc(Cl)c3)CC2)n1 | 101.2 |
| CCOc1ccccc1N/C(SC)=C(/C#N)C(=O)NCc1cccs1 | 115.0 |
| CCOc1ccc(CN2CCCC2c2cc(C)on2)cc1OC (configuration not stated) | 110.7 |
| COc1ccc(NC(=O)CSc2nccc3c2ccn3C)c(OC)c1 | 103.0 |
| Cc1ccc(-c2c(C)nn3c2NC(=O)CCC3=O)cc1S(=O)(=O)Nc1cc(F)ccc1F | 99.0 |
| CCn1nc(C)c2ccnc(N3CCC(C(=O)Nc4cc(OC)cc(OC)c4)CC3)c21 | 99.6 |
| CCc1cc(C2CCCN2C(=O)c2cc(-c3ccco3)on2)on1 (configuration not stated) | 98.5 |
| CCOC(=O)C1=C(C)OC(N)=C(C#N)C1c1ccsc1 (configuration not stated) | 104.3 |
| Cn1c(N2CCN(C(=O)c3ccc(C(C)(C)C)cc3)CC2)cc(=O)n(C)c1=O | 107.0 |
| CCn1cccc1-c1nc(C)c(C(=O)Nc2ccc(C(C)C)cc2)s1 | 100.2 |
| Cc1cc2c(cc1C)CSC(c1ccc(Cl)cc1)SC2 | 109.9 |
| CCCS(=O)(=O)N1CCOc2ccc(COCc3ccc(F)cc3)cc2C1 | 101.2 |
| Cc1ccc(Oc2nccnc2N2CCCC(C(=O)NCCC(C)C)C2)cc1 (configuration not stated) | 107.8 |
| O=C(Nc1ccccc1)c1nnc(C2CCN(C(=O)C3CC3)CC2)s1 | 102.0 |
| Cc1ccc(-c2ccc(N3CCN(C4CCCCC4)CC3)nn2)cc1S(=O)(=O)N1CCCC1 | 102.1 |
| O=C1CC(c2ccccc2)CC2=C1C(c1ccc3c(c1)OCO3)Nc1ccc3ccccc3c12 (configuration not stated) | 106.0 |
| COc1ccc(S(=O)(=O)n2c(SCC(=O)c3ccc(Cl)cc3)nc3ccccc32)cc1 | 114.0 |
| O=C(c1ccccn1)N1N=C(C(F)(F)F)CC1(O)c1ccc(F)cc1 (configuration not stated) | 107.5 |
| CCc1ccc(NC(=O)N2CCC(n3cnc4ccccc4c3=O)CC2)cc1 | 109.6 |
| CC1=C(C(=O)Nc2cccc(Cl)c2)C(c2ccc(C)cc2)NC(=O)N1 (configuration not stated) | 101.3 |
| O=C1C2=C(C(c3ccc(Cl)cc3)=NCCN2)C(c2ccc(Br)cc2)N1c1ccccc1 (configuration not stated) | 115.6 |
| Cc1ccc(-c2ccc(-n3nc(C)c(S(=O)(=O)NCC4CCCO4)c3C)nn2)cc1 (configuration not stated) | 104.5 |

Remaining list, next part.
mol	GIV-Gai inh
C=CCNC(=O)NC1CCN(C2=NS(=O)(=O)C(c3ccc(Cl)cc3)=C2C)CC1	100.1
O=[N+]([O-])c1ccc(C2(O)CN(c3ccc(Cl)cc3)C3=[N+]2CCCS3)cc1 (configuration not stated)	114.9
Cc1ccccc1CNC(=O)C1(C)CCCN(C(=O)NCC2CCCO2)C1 (configuration not stated)	109.8
Cc1csc(-c2cc(S(=O)(=O)N3CCN(C4CCCCC4)CC3)c(C)s2)n1	139.7
Cc1cc(NC(=O)CSc2nc3c(c(=O)n2-c2ccc(F)cc2)SCC3)no1	102.4
CN(C)S(=O)(=O)c1ccc2c(c1)nnn2CCNC(=O)NC1CCCC1	104.6
Cc1ccc(/C(O)=C2\C(=N)N(c3ccccc3)C3=C(C(=O)CCC3)C2c2ccc([N+](=O)[O-])cc2)cc1 (configuration not stated)	115.2
Cn1c(SCc2c(F)cccc2Cl)nnc1-c1ccc2c(c1)OCCCO2	100.8
CCOC(=O)C1=C(C)NC2=C(C(=O)C(C(=O)OCC)C(c3ccccc3OC)C2)C1c1ccc(Cl)cc1 (configuration not stated)	102.4
CCOc1cc(C2C3=C(CCCC3=O)OC3=C2C(=O)CCC3)cc(Br)c1O	105.2
CC(=O)Nc1cc(-c2nc(-c3ccc(-c4csc(C)n4)cc3)no2)ccc1C	104.0
CCc1ccc(S(=O)(=O)N2CCC3(CC2)NCCN=C3NCc2ccccc2C)cc1	104.2
COCCn1c(=S)[nH]c2cc(C(=O)NCCc3c[nH]c4ccccc34)ccc2c1=O	103.6
CCN1C(=O)C2(C(C#N)=C(N)Oc3[nH]c(=O)[nH]c(=O)c32)c2ccccc21 (configuration not stated)	108.4
COCCOC(=O)C1=C(C)NC(C)=C(C(=O)OCCOC)C1c1ccc(-c2cccc([N+](=O)[O-])c2)o1	115.9
Cc1ccc(S(=O)(=O)Oc2ccc3ccccc3c2/C=N/NC(=O)CC(=O)N/N=C/c2c(OS(=O)(=O)c3ccc(C)cc3)ccc3ccccc23)cc1	119.9
CCc1ccccc1NS(=O)(=O)c1cc(-c2cc(C(F)(F)F)on2)sc1C	98.2
CC(C)c1ccc(/C=C/C23NC(=O)CCN2c2ccccc2C3(C)C)cc1 (configuration not stated)	100.4
COC(=O)c1ccc2c(=O)n(Cc3ccc(C(=O)NCc4ccccc4OC)cc3)c(=S)[nH]c2c1	102.8
CC12c3ccccc3C(c3ccccc31)C1C(=O)N(Cc3cccnc3)C(=O)C12 (configuration not stated)	100.5
Cc1cc(C2CCCN2C(=O)c2cc(C3CC3)on2)no1 (configuration not stated)	101.0
O=c1c(NC2CC2)csc2ccccc12	110.7
O=C(COc1ccccc1)Nc1sc2c(c1C(=O)Nc1cccc3ccccc13)CCC2	112.5
CC(=O)c1cc2c(N)c(C(=O)c3ccc(Br)cc3)sc2nc1C	104.4
COc1cc2c(cc1OC)C(C1=NC(C)(C)Cc3cc(OC)c(OC)cc31)=NC(C)(C)C2	104.8
Cc1nnc(-c2c(S(=O)(=O)NCc3ccco3)c(C)n(C)c2C)o1	104.6
O=C(NC1CC1)C1CCN(c2ccc3cc(S(=O)(=O)N4CCCCC4)ccc3n2)CC1	110.2
CCOC(=O)CSc1nc2cc(C(=O)NCCC3=CCCCC3)ccc2c(=O)n1C1CCCCC1	105.2
COc1cccc(N=CC23c4ccccc4C(c4ccccc42)C2C(=O)N(c4ccccc4)C(=O)C23)c1 (configuration not stated)	112.2
Cc1ccc2c(c1)NC(=O)C(C(=O)Nc1ccccc1F)O2 (configuration not stated)	99.9
O=C(O)/C=C\C(=O)N1CCN(c2nc(-c3ccccc3)c3cc([N+](=O)[O-])ccc3n2)CC1	99.7
CC(=O)N1CCc2cc(N3CC(C(=O)NCC4CCCO4)CC3=O)ccc21 (configuration not stated)	108.2
COc1cc([C@H]2[C@H](C(=O)C(C)(C)C)N3C=Cc4ccccc4[C@H]3C2(C#N)C#N)cc(OC)c1OC	114.5
Cc1cccc(-c2cc(N3CCN(C(=O)c4ccccc4Br)CC3)ncn2)c1	98.7
O=C(Nc1c(-c2ccccc2)nc2ccc(Cl)cn12)c1cccs1	104.0
CCc1cc(C2CCCN2C(=O)NC(C)CC)on1 (configuration not stated)	102.6
O=C1CC(c2ccccc2C(F)(F)F)c2c(ccc3ccccc23)N1 (configuration not stated)	105.1
COc1cc(C2Nc3ccc4ccccc4c3C3=C2C(=O)CC(C)(C)C3)ccc1OC(=O)c1cc(F)c(F)cc1Cl (configuration not stated)	109.2
C#CCOc1cc(C2CC(=O)Nc3c2c(C)nn3-c2nncc(-c3ccc(C)cc3)n2)ccc1OC (configuration not stated)	98.5
Cc1ccc(-c2nc(CN3CCN(C(=O)Nc4cc(C)ccc4C)CC3)c(C)o2)cc1	104.1
CCn1nnc2cc(-c3noc(-c4sc(C)nc4C)n3)ccc21	99.7
COc1cccc(-c2noc(-c3nn(-c4cccc(F)c4)ccc3=O)n2)c1OC	102.5
Cc1ccc(-c2n[nH]c3c2C(c2ccc4c(c2)OCO4)N(c2ccc(F)cc2)C3=O)cc1 (configuration not stated)	104.1

In the list so far, five contain a cyano group.
mol	GIV-Gai inh
COC(=O)C1C(=O)NC(SCC(=O)Nc2ccc(C)c(C)c2)=C(C#N)C1c1ccccc1OC (configuration not stated)	112.9
CCOc1ccccc1N/C(SC)=C(/C#N)C(=O)NCc1cccs1	115.0
CCOC(=O)C1=C(C)OC(N)=C(C#N)C1c1ccsc1 (configuration not stated)	104.3
CCN1C(=O)C2(C(C#N)=C(N)Oc3[nH]c(=O)[nH]c(=O)c32)c2ccccc21 (configuration not stated)	108.4
COc1cc([C@H]2[C@H](C(=O)C(C)(C)C)N3C=Cc4ccccc4[C@H]3C2(C#N)C#N)cc(OC)c1OC	114.5

From PubChem BioAssay

These rows are one share of the data. The share of hits here may be higher or lower than overall.
